Screening data as filed in PubChem.
RE007 growth inh: qHTS Assay for Inhibitors of the HIV-1 protein Vpr; S. pombe RE007 Vpr strain, BacTiter-Glo ATP luminescence, 24 h; control for the full effect not named in the record; Potency, µM (doses to about 92.2 µM), for inactives: at the top dose activity change, negative = less growth; 360,000 compounds, 0.21% hits; AID 651644, 2012; active = well fitted falling curve with a large enough effect; inconclusive = small, poorly fitted or top-dose-only effect; inactive = no such curve, though single readings can be large or run the other way;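 also: nearly all actives have a fitted effect of over 50% in size; the assay follows cell death caused by Vpr and the record does not say whether a fall means rescue or toxicity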
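Fission yeast strain RE007, carrying one chromosomally integrated HIV-1 vpr copy, was seeded at OD 0.01 in PMG+AL medium with 23 nL pinned compound. After 24 h at 30 °C and 99% humidity, viability was read by BacTiter-Glo luminescence.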
2A StopGo: High Throughput Screening for Foot and Mouth Disease Virus Antivirals | human cells with a luciferase reporter of 2A StopGo recoding; control for the full effect not named in the record | Potency, µM (series often up to 57.9 µM), for inactives: top-dose signal change, negative = less light | 410,000 compounds, 1.2% hits; active = well fitted falling curve with a large enough effect; inconclusive = small, poorly fitted or top-dose-only effect; inactive = no such curve, though single readings can be large or run the other way; tested in HEK293T cells; also: nearly all actives have a fitted effect of over 45% in size; luciferase light after 4 h
An asterisk follows results filed as active; ? = inconclusive; [ ] = remark or other dose. % is scaled to controls: 0 for no effect and ±100 for the full control effect; potency is read from the fitted curve at half-maximal effect. Some of the compounds tested; count on the stated rates, not on these rows.

SMILES	RE007 growth inh	2A StopGo
COc1ccc(CCN2CC(C(=O)NCc3ccon3)CCC2=O)cc1 (configuration not stated)	-15%	0%
CCCS(=O)(=O)NC(=O)C1(C)CCN(C(=O)c2ccc(OC)cc2)C1 (configuration not stated)	23%	-17%
NC(c1csc(Nc2ccc(C(=O)c3ccccc3)cc2)n1)C1CCCCC1 (configuration not stated)	?	?
COC(=O)c1ccc(Cn2c(C)c(C(=O)NCc3cccs3)sc2=O)o1	-13%	-11%
COC(=O)[C@@]1(Sc2ccc(OC)cc2)CC(=O)N[C@@H]1c1ccccc1	23%	5%
O=c1[nH]nc2c3ccccc3occ1-2	9%	-19%
CCc1nc2ccc(C(=O)NCCN3CCNC3=O)cn2c1N(C)Cc1ccc(OC)cc1	-25%	0%
C[C@@H]1CN([C@H](C)CO)C(=O)c2c(c3ccccc3n2C)-c2ccccc2CO[C@@H]1CN(C)S(=O)(=O)c1cccs1	0%	-24%
COC(=O)C1=C(C)N(CCCCCC(=O)O)C(=O)NC1c1ccccc1 (configuration not stated)	9%	-3%
COc1cccc(-c2nc3nc(C)cc(C)n3c2NCc2ccccc2)c1	-25%	-19%
CCN(Cc1ccccc1)C(=O)c1cccs1	15%	-15%
CC(C)(C)c1ccc(C(=O)N2CCC2(C)C(=O)NS(=O)(=O)c2ccccc2Cl)cc1 (configuration not stated)	-8%[18.4 µM]	-17%
Cc1ccccc1-c1cnc(C(O)c2ccccc2)[nH]1 (configuration not stated)	-19%[18.4 µM]	51%[activator]
Cc1ccc(S(=O)(=O)NC(=O)C2(C)CCN2C(=O)c2ccccc2)cc1 (configuration not stated)	-7%[18.4 µM]	-14%
C[C@H]1CN([C@@H](C)CO)C(=O)CCCn2cc(nn2)CO[C@@H]1CN(C)C(=O)c1ccncc1	1%	-16%
CC(C)(C)N1C(=O)c2ccccc2NC(=O)C1C(=O)NCCOc1ccccc1 (configuration not stated)	0%	-5%
O=C1NC(=O)C2(N1)C(=O)c1cccc3cccc2c13 (configuration not stated)	8%	-17%
Cc1[nH]nc2ccc(-c3cncc(OC[C@@H](N)Cc4c[nH]c5ccccc45)c3)cc12	11%	?
Cc1ccc(S(=O)(=O)N2CCC3CC2c2cc(Cl)ccc23)cc1 (configuration not stated)	8%	-8%
C[C@@H]1CN([C@H](C)CO)C(=O)c2cc(Br)cnc2O[C@@H]1CN(C)C(=O)CC1CC1	-3%	-23%
CC(=O)Nc1cc(-c2cccc(F)c2)cn2c(-c3ccccc3)cnc12	0%	-8%
CCCCCNC(=O)C(c1ccc(-c2ccccc2)cc1)n1c(=O)c(-c2ccccc2)nc2ccccc21 (configuration not stated)	6%	12%
COc1ccc(CN2CCN(C(=O)Cc3ccccc3)CC2)cc1OC	3%	-28%
CN1C2C=CC(=O)C1C1C(=O)N(c3ccccc3)C(=O)C12 (configuration not stated)	-18%	?
Cc1ccc(C(=O)NCCCn2ccnc2)cc1C	14%	-14%

(more compounds)
SMILES	RE007 growth inh	2A StopGo
Cc1noc(C)c1-c1ccc(C(=O)NCc2cccs2)c2occc12	5%[18.4 µM]	32%[activator]
O=C(OCc1cn([C@@H]2CN(CC3CCCCC3)[C@@H](c3ccc(Cl)cc3)C[C@H]2O)nn1)c1ccccc1	-4%	-23%
Fc1cccc(Cc2c(-c3ccco3)nc3c(Cl)cc(C(F)(F)F)cn23)c1	-7%	?
COc1cccc(C(O)c2ncc(-c3ccccc3Cl)[nH]2)c1 (configuration not stated)	-5%	80%[activator]
CCC(=NNS(=O)(=O)c1ccc(C)cc1)c1ccccc1	-19%	41%[activator]
O=C(Nc1ccc(Cl)cc1)C1Cc2c(-c3cccc(F)c3)ccnc2O1 (configuration not stated)	-16%	-25%
COC(=O)C(Cc1c[nH]c2ccccc12)NC(=O)CCNC(=O)c1ccco1 (configuration not stated)	6%	0%
COc1ccc(CNC(=O)NS(=O)(=O)c2ccc(C)cc2)cc1	5%	-4%
C[C@@H]1Cn2cnc(C(=O)Nc3ccc(CNC(=O)OC(C)(C)C)cc3)c2C(=O)N1	-10%	?
C[C@@H](NC(=O)[C@@H]1CCCN1C(=O)[C@@H]1CCCN1C(=O)c1ccc(Cl)cc1)c1ccccc1	5%	-18%
Brc1ccc2nc(-c3ccco3)c(CC3CCCCC3)n2c1	-28%	-29%
CCc1nc2ccc(C(=O)Nc3ccc(OC)c(OC)c3)cn2c1N(C)CCC(C)C	-23%	-2%
COC(=O)C1=C(c2ccc(OCc3ccccc3)cc2)C[C@@H]2CC[C@H]1N2C(=O)NCc1ccc(F)cc1	4%	?
O=c1ccc(-c2ccccc2)nn1Cc1ccc(Cl)cc1	17%	?
Cc1ccc(S(=O)(=O)NCc2ccccc2)cc1C(=O)N1CCN(S(=O)(=O)c2ccccc2F)CC1	-8%	12%
COc1cc(/C=C/C(=O)O)cc(S(=O)(=O)Nc2cc(S(=O)(=O)N3CCCCC3)ccc2Cl)c1OC	7%	1%
COc1ccc(C2=Nc3ccccc3N(C(=O)c3cnccn3)C2C(=O)NC2CCCC2)cc1 (configuration not stated)	4%	40%[activator]
Cc1ccc(C)c(CC(=O)N2CCCC(c3cc(C(=O)NCc4cccnc4)no3)C2)c1 (configuration not stated)	-16%	?
Cc1cn([C@H]2C[C@H](O)[C@@H](CCC(=O)NCc3ccco3)O2)c(=O)[nH]c1=O	4%	?
CCN(CC(=O)Nc1cccc(OC)c1)C(=O)C1CC(=O)N(Cc2ccccc2Cl)C1 (configuration not stated)	-2%	19%
C[C@@H]1CN([C@@H](C)CO)C(=O)CCCn2nncc2CO[C@@H]1CN(C)S(=O)(=O)c1ccc(C#N)cc1	1%	-17%
CS(=O)(=O)Nc1cccc(NC(=O)C2Cc3c(-c4cccc(F)c4)ccnc3O2)c1 (configuration not stated)	15%	-1%
Cc1cccc(C(C)C)c1NC(=O)COC(=O)CCC(=O)N(CC(C)C)c1c(N)n(CC(C)C)c(=O)[nH]c1=O	7%	-19%
Cc1ncoc1C(=O)NCC1=C(c2ccc3ccccc3c2)C[C@@H]2CC[C@H]1N2Cc1ccco1	-3%	-12%
CCOC(=O)N(C)c1c(CC)nc2c(OCc3ccc(F)c(F)c3)cccn12	-15%[18.4 µM]	-26%

Full records, looked up by structure. Screens in order: RE007 growth inh, 2A StopGo
Fc1cccc(Cc2c(-c3ccco3)nc3c(Cl)cc(C(F)(F)F)cn23)c1 is listed as -7%, ?
COc1cccc(C(O)c2ncc(-c3ccccc3Cl)[nH]2)c1 (configuration not stated) is listed as -5%, 80%[activator]
C[C@@H](NC(=O)[C@@H]1CCCN1C(=O)[C@@H]1CCCN1C(=O)c1ccc(Cl)cc1)c1ccccc1 is listed as 5%, -18%
CCc1nc2ccc(C(=O)Nc3ccc(OC)c(OC)c3)cn2c1N(C)CCC(C)C is listed as -23%, -2%
O=c1ccc(-c2ccccc2)nn1Cc1ccc(Cl)cc1 is listed as 17%, ?

Following part.
SMILES	RE007 growth inh	2A StopGo
O[C@H]1CN(Cc2cccs2)[C@@H](c2ccccc2)C[C@@H]1n1cc(-c2ccc(F)cc2)nn1	-9%	-14%
O=c1ccn([C@@H]2O[C@H](CNCc3cccn3-c3ccncc3)[C@@H](O)[C@H]2O)c(=O)[nH]1	2%	2%
O=c1c2ccccc2nc(/C=C/c2cc(Br)ccc2O)n1CCO	-10%	?
CCc1nc2c(OCc3ccc(C(F)(F)F)cc3)cccn2c1N(C)C(=O)CC(C)C	-3%[18.4 µM]	?
O=C(OCCOc1ccccc1Cl)c1cc(S(=O)(=O)N2CCCCC2)ccc1N1CCOCC1	7%	?
CC(C)CNC(=O)C1Nc2ccccc2C2C=CCC12 (configuration not stated)	0%	30%
Cn1c(=O)c2cc(NC(=O)NCCc3ccccc3)ccc2n1Cc1ccccc1	14%	6%
CC(=O)c1cccc(-c2cnc3c(NC=O)cc(-c4ccc(N5CCN(C)CC5)cc4)cn23)c1	-7%[18.4 µM]	31%[activator]
Cc1cc(C)cc(OCC(=O)NNC(=O)CC(C)c2ccccc2)c1 (configuration not stated)	-2%	-17%
CC(=O)NC(C)(c1ccccc1)c1nc(-c2ccc(F)c(Cl)c2)cs1 (configuration not stated)	19%	-3%
COc1ccc(C(NC(=O)C2CCN(CCc3ccccc3)CC2)c2ccccn2)cc1 (configuration not stated)	-8%	-2%
NC(Cc1ccc(Cl)cc1)c1csc(NC(=O)Nc2ccccc2-c2ccccc2)n1 (configuration not stated)	-8%[18.4 µM]	-20%
CCCCn1c(O)c2n(c1=O)Cc1ccccc1N=C2c1ccc(C)cc1	-3%	0%
Cc1cccc(C)c1NC(=O)C(c1ccccc1OC(F)(F)F)N1CCN(C)CC1 (configuration not stated)	5%	-15%
Cc1ccccc1S(=O)(=O)N1C[C@H]2CON(C)[C@H]2C[C@H]1c1cccc(-c2ccc(C#N)cc2)c1	-13%	-1%
Cn1c(N)c(C(=O)Nc2ccccc2)c(=O)[nH]c1=O	1%	18%
COC(=O)C1=C(c2cc3ccccc3s2)C[C@@H]2CC[C@H]1N2C(=O)NCc1ccc(C(F)(F)F)cc1	8%	-30%
CCN1C=C(C(=O)c2ccccc2)C(=O)CC1	-2%	-14%
CC(C)[C@H](CO)NC(=O)[C@H]1O[C@@H](n2ccc(N)nc2=O)[C@H](O)[C@@H]1O	7%	-4%
CN1OC[C@@H]2CN(S(=O)(=O)c3cccc(C(F)(F)F)c3)[C@H](c3ccc(-c4cc5ccccc5o4)cc3)C[C@@H]21	8%	?
COCCNC(=O)C1(C)CCCN(Cc2c(C)nn(-c3ccccc3)c2C)C1 (configuration not stated)	16%	-9%
CCOC(=O)[C@]12Cc3c(cc(OC)c(OC)c3OC)[C@H]1N(C)C(=O)c1cc(OC)ccc12	3%	10µM*
c1ccc(CN(Cc2ccccc2)C(c2ccnc3ccccc23)c2nnnn2-c2ccc3c(c2)OCCO3)cc1 (configuration not stated)	-4%	-4%
Cc1nn(C)c(C)c1/C=C(\C#N)S(=O)(=O)c1ccc(F)cc1	15%	0%
CC(C)(C)N1C(=O)c2c(C(=O)OCc3ccccc3)[nH]c(-c3ccccc3)c2C1=O	18%	-16%

Other entries.
SMILES	RE007 growth inh	2A StopGo
CCCCC[C@H](C)N1C[C@H](COCc2ccccc2)Oc2cc(N3CC[C@@H](N(C)C)C3)ccc2S1(=O)=O	24%	3%
CCCCN1C(=O)C(CC(=O)NC2CC2)CC(C(=O)N(CC)CC)=C1C (configuration not stated)	7%	-27%
C[C@H]1CN([C@@H](C)CO)S(=O)(=O)c2ccc(Br)cc2O[C@@H]1CN(C)C(=O)Nc1ccc2c(c1)OCO2	-27%	3%
C[C@@H]1CN(S(=O)(=O)C(C)(C)C)[C@H](CCO)/C1=C\c1ccccc1	0%	-15%
CCc1nc2ccc(C(=O)Nc3cccc(OCC(=O)N(C)C)c3)cn2c1N(C)Cc1ccc(N(C)C)cc1	-21%	-3%
COc1ccc(-c2n[nH]nc2C2=CC(=O)CC(C)(C)C2)cc1	-4%	-5%
CC(=O)NC(c1cccc(F)c1)c1nc(-c2cc(F)cc(Cl)c2)cs1 (configuration not stated)	5%	-8%
CSc1cccc(NC(=O)CCCOc2cc(=O)n(C)c3ccccc23)c1	14%	18%
O=C(NCc1ccccc1)C1c2ccccc2OCC(=O)N1C1CC1 (configuration not stated)	14%	-20%
CCCS(=O)(=O)NC(=O)C1(C)CCN(C(=O)Cc2cccc3ccccc23)C1 (configuration not stated)	32%	-24%
O=C(O)c1cccc2c1C(=O)c1cc([N+](=O)[O-])cc([N+](=O)[O-])c1-2	-9%	-4%
CCCCCCNC(=O)O[C@H]1Cn2c(=O)n(CCCCCC)c(=O)n2[C@@H]2CN(S(=O)(=O)c3ccc(C)cc3)C[C@]12O	14%	?
CC1=C(C(=O)N(C)C)CC(CC(=O)NCC2CCCCC2)C(=O)N1CCC1=CCCCC1 (configuration not stated)	4%	-3%
CCOc1cc(N2CCOCC2)c(OCC)cc1NC(=O)c1ccccc1N1CCCC1=O	5%	-27%
CCc1c(C2CC2)ncn1Cc1cccc(-c2ccccc2)c1	-29%	?
Cc1ccc(N2CCN(C(=O)C(=O)c3ccc4c(c3)OCO4)CC2)cc1	2%	38%[activator]
c1cnc2ccc(-n3ccnc3)cc2c1	-7%	-9%
COc1ccc2c(c1)C[C@]1(C)c3ccccc3C(=O)N(Cc3ccccc3)[C@H]21	19%	?
COc1ccccc1-c1ccc2c(c1)C(C)(Cc1ccc(Cl)c(Cl)c1)C(=O)N2 (configuration not stated)	16%	-19%
c1ccc(N2[C@@H]3c4ccccc4C[C@H]2c2ccccc23)cc1	0%	-21%
CCC(CC)CN1CCC(CN2C(=S)NC[C@@H]2CC(C)C)CC1	?	-6%
O=[N+]([O-])c1ccc(COc2ccc(CN3CCOCC3)cc2)cc1	-23%	-6%
COCCNc1nc(NCCN2CCNC2=O)c2sccc2n1	-14%	-16%
COc1ccc(C(O)c2nc(-c3ccccc3)cs2)cc1 (configuration not stated)	-4%[18.4 µM]	-9%

Molecules shown so far containing two or more sulfur atoms:
SMILES	RE007 growth inh	2A StopGo
COC(=O)c1ccc(Cn2c(C)c(C(=O)NCc3cccs3)sc2=O)o1	-13%	-11%
C[C@@H]1CN([C@H](C)CO)C(=O)c2c(c3ccccc3n2C)-c2ccccc2CO[C@@H]1CN(C)S(=O)(=O)c1cccs1	0%	-24%
Cc1ccc(S(=O)(=O)NCc2ccccc2)cc1C(=O)N1CCN(S(=O)(=O)c2ccccc2F)CC1	-8%	12%
COc1cc(/C=C/C(=O)O)cc(S(=O)(=O)Nc2cc(S(=O)(=O)N3CCCCC3)ccc2Cl)c1OC	7%	1%
